Source: PubChem (PCMD)
Biofilm kill mix: mixtures killing C. albicans biofilm. C. albicans biofilm persisters + clotrimazole, fluorescence viability; primary screen in compound mixtures of four per well. inhibition, % at 7.6 µM. 120,000 compounds, 0.02% hits. AID 1242;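 active means inhibition above 30.3% in the primary screen of four-compound pools, then above 30% when the compound was retested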;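 further: compounds exposed to preformed 24 h biofilms for 48 h; the number belongs to the whole pool; some results filed as inactive read as strong as hits; inactives centre near 12; 0% = biofilm with clotrimazole alone and 100% = kill control; retested singly at about 60 µM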
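Incubation: 24 h biofilm formation, then 48 h compound exposure, 37 °C | Material: C. albicans biofilms | Buffer or medium: RPMI/MOPS medium, pH 7.0 | Measured by: 2-h Alamar Blue fluorescence, 535/590 nm excitation/emission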
The depositor's hits bear a star; & = joins results of further samples.

Structure | Biofilm kill mix
COc1ccc(N2CCN(C(=O)CSc3nnc(-c4ccco4)n3C)CC2)cc1 | 11
O=[N+]([O-])c1ccc(Oc2cccnc2)nc1 | 15
CC(=O)NCCc1ccc(O)cc1 | 15
O=C(Nc1ccccc1Cl)c1ccc2nsnc2c1 | 6
CCc1nc(SCC(=O)NNC(=O)c2ccc(OC)cc2)c2ccccc2n1 | 5
O=C(Nc1ccncc1)Nc1ccc(F)c(Cl)c1 | 12
Cc1ccc(-c2nn(-c3ccccc3)cc2NC(=O)CCl)cc1 | -3
Cc1ccc(OC(=O)CCC(=O)Nc2ccc(S(=O)(=O)Nc3cc(C)on3)cc2)cc1 | -2
COc1ccc([N+](=O)[O-])cc1NC(=O)c1ccccc1N(C)S(C)(=O)=O | 8
O=C(COc1cccnc1[N+](=O)[O-])Nc1cccc(S(=O)(=O)N2CCOCC2)c1 | 7
CCOC(=O)C1CCCN(c2c(C(=O)c3ccccc3)cnc3ccccc23)C1 (centres undefined) | 12
COc1ccc(COC(=O)c2ccc3c(=O)n4c(nc3c2)CCC4)cc1F | 20
O=C(COC(=O)/C=C/c1ccco1)NCc1ccccc1Cl | 16
CC(C)(C)c1cc(C(=O)NCCN2CCCC2)cc(C(C)(C)C)c1 | 17
O=C1CCC/C(=N/NC(=O)c2cc(NS(=O)(=O)c3cccs3)cc(NS(=O)(=O)c3cccs3)c2)C1 | 16
COc1ccc(-c2nc(S(=O)(=O)c3ccccc3)c(N3CCOCC3)o2)cc1 | 9
CC1CCC(C(C)C)C(=O)/C1=C\c1ccc(NC(=O)CCC(=O)O)cc1 (centres undefined) | 29
CCOC(=O)CN/C=C(\C#N)c1ccc(F)cc1 | 13
CCOC(=O)C1=C(C)N(Cc2ccc(C(=O)O)cc2)C(=O)NC1c1ccc([N+](=O)[O-])cc1 (centres undefined) | 14
Cc1nc([N+](=O)[O-])cn1C(C)C | 22
CC(C)CNC(C(=O)Nc1ccc([N+](=O)[O-])cc1Br)c1ccccc1 (centres undefined) | -7
COc1ccc(/C(C)=N\NC(=O)c2ccc3c(c2)OCO3)cc1OC | 9
CC(C)NCC(O)COCCOc1ccc(C(C)(C)C)cc1 (centres undefined) | 15
Cc1ccnc(NC(=O)CCCOc2ccc(Cl)cc2C)c1 | 19
CC(=O)c1ccc(NC(=S)N2CCC(Cc3ccccc3)CC2)cc1 | 21
O=C(Nc1ccc(Br)cc1)Nc1ccccc1Cl | 13
Nc1nc(/C=C/c2ccc(F)cc2)nc(-c2ccccc2O)n1 | 9
COc1cc(C2CC(=O)c3cnc(NC(C)=O)nc3C2)cc(OC)c1OC (centres undefined) | 7
Cc1ccc(NCN2C(=O)C(=O)c3ccccc32)nc1 | 7
C=CCc1cc(/C=C2/NC(=O)N(CC)C2=O)cc(OCC)c1OCc1ccc(C(=O)O)cc1 | -2
COc1ccc(-c2nnn(CC(=O)N3CCN(c4ccccc4OC)CC3)n2)cc1OC | 25
Cc1cc(/C=C(\C#N)C(=O)NC2CC2)c(C)[nH]1 | 18
O=C1C=CC(=O)N1c1ccc(Sc2ccc([N+](=O)[O-])cc2)cc1 | 7
O=C(NCc1ccccc1)N1CCn2c(nc3ccccc32)C1 | 13
O=C(Nc1cccc(S(=O)(=O)N2CCOCC2)c1)c1cnccn1 | 4
Fc1ccccc1Cc1noc(CN(Cc2ccccn2)CC2CCCO2)n1 (centres undefined) | 2
CCc1nnc(NC(=O)[C@@H](NC(=O)c2cccc(C)c2)C(C)C)s1 | 11
COc1ccc(-c2csc(Nc3ccc(S(N)(=O)=O)cc3)n2)cc1OC | -5
COc1ccccc1N1CCN(S(=O)(=O)c2c(C)[nH]c(=O)[nH]c2=O)CC1 | 12
COC(=O)c1ccccc1NC(=S)N(Cc1ccc2c(c1)OCO2)Cc1cc2cc(C)ccc2[nH]c1=O | 18
CN(C)c1nnnn1-c1ccc(Oc2ccccc2)cc1 | 3
Nc1c(C=C2C=CC(=O)C=C2)c(=O)nc2snc(SCc3ccccc3)n12 | 11
CCN(CC)S(=O)(=O)c1cc(NC(=O)COC(=O)CCC(=O)c2ccc(F)cc2)ccc1C | 14
O=C(COC(=O)c1ccc(S(=O)(=O)NCc2ccco2)cc1)Nc1ncc(Cl)cc1Cl | 7
Cc1c(C(=O)NCCSCc2c(F)cccc2Cl)cnn1-c1ccc(Cl)cc1 | 22
CCCCCC(O)(CCN1CCCCC1)c1ccc(OCC)cc1 (centres undefined) | 12
Cc1ccc(NC(=O)CC2S/C(=N/N=C3\CCCc4ccccc43)NC2=O)cc1 (centres undefined) | 5
Nc1nc(SCC(=O)Nc2cc(C(F)(F)F)ccc2N2CCOCC2)n[nH]1 | 9
CC(C)OC(=O)NCCOC(=O)Nc1ccc(Cl)c(Cl)c1 | 4
COc1cc(NC(=S)N2CCCC(CO)C2)cc(OC)c1 (centres undefined) | -7
CC(=O)Oc1ccc(NC(=O)Cc2ccccc2)c(C(=O)O)c1 | 12
O=C1NC(c2ccccc2)=C(c2ccccc2)C1=O | 4
O=C(NNc1ccc(Cl)cc1)c1sccc1Cl | 8
Oc1ccccc1C=NCC(O)c1ccccc1 (centres undefined) | 8
Cc1ccc(S(=O)(=O)Oc2ccc(/C=N/NC(=O)c3c(Cl)cnn3C)cc2)cc1 | 6
COc1cc(C(=O)Nc2sc(C)c(C)c2C(=O)O)cc(OC)c1OC | 8
COc1ccc(CC2(CO)CCN(Cc3cnn(C)c3)CC2)cc1 | 28
Cc1cccc(C)c1Nc1ncnc(N)c1[N+](=O)[O-] | 8
CCc1cccc2c(C(=O)COC(=O)c3ccccc3)c[nH]c12 | -5
CCN(CC)CC(O)COC(c1ccccc1)c1ccccc1 (centres undefined) | 16

Further records.
Structure | Biofilm kill mix
CN(C(=O)CSc1nnc(-c2ccco2)n1N)C1CCCCC1 | 8
O=C1CS/C(=N\N=C\c2ccco2)N1c1ccccc1 | 15
O=C(NCCc1ccccc1)c1ccccc1F | 21
O=C(CSc1nc(O)c(Cc2ccccc2)c(=O)[nH]1)N1CCOCC1 | 23
COc1cc(NS(=O)(=O)c2ccc(N)cc2)nc(OC)n1 | 10
CCOC(=O)c1c(C)c(-c2ccccc2)n(CC(=O)NCCCN(CC)CC)c1C | 11
O=C(COC(=O)c1ccc2c(=O)n3c(nc2c1)CCC3)Nc1ccccc1F | 19
COc1ccccc1C(=O)N/N=C(\C)CC(=O)Nc1ccc(Cl)cn1 | 26
O=C(O)CC1(CC(=O)Nc2cccc(C(F)(F)F)c2)CCCC1 | 5
CSc1nsc(SCC(=O)Nc2nc3ccccc3s2)n1 | 18
O=C1OCc2ccc(NS(=O)(=O)c3ccc(C(F)(F)F)cc3)cc21 | 18
COc1cc(/C=C/C(=O)N2CCCC2)cc(OC)c1OC | 11
CCOC(=O)CSc1ccc2ccccc2n1 | 7
O=C1CC(c2ccccc2Cl)c2c(sc3c(=O)[nH]c(CCl)nc23)N1 (centres undefined) | 14
CCCC(=O)OCC(=O)Nc1ccccc1Sc1ccccc1 | 13
O=C1CCC/C1=C\c1ccccc1 | 5
CC(=O)OC(COc1cccc(C)c1)Cn1cnc2ccccc21 (centres undefined) | 24
CCCN1CCC(=O)N([C@H](CSc2ccc(OC)cc2)CC(C)C)CC1 | 16
FC(F)(F)c1ccc(NC2=NCCC2)cc1 | 19
O=C(NCc1ccccn1)C1CCC(CNS(=O)(=O)c2cccc3nsnc23)CC1 (centres undefined) | 22
CC1(C)Cc2c(C#N)c(N)n(-c3ccccc3)c(=S)c2CO1 | 17
O=C(Nn1c(-c2ccc(Br)cc2)nc2ccccc2c1=O)c1ccc([N+](=O)[O-])cc1 | 20
C=CCNC(=O)c1ccc(S(=O)(=O)CC)c(Cl)c1Cl | 7
CN(Cc1cccc(Cl)c1Cl)c1ccc(S(=O)(=O)N2CCCCC2)cc1[N+](=O)[O-] | 6
CSc1cc(-c2ccccc2)[nH]c(=O)c1C#N | 1
COc1ccc(NC(=S)Nc2ccc3snnc3c2)cc1 | 27
COc1ccc(N2C(=O)CC(N(CCc3ccc(S(N)(=O)=O)cc3)C(=S)Nc3ccccc3)C2=O)cc1 (centres undefined) | 30
CC(C)(C)NC(=S)NNC(=O)[C@H]1C[C@@H]1c1ccccc1 | 22
COc1ccccc1C(=O)N/N=C/c1cnc2ccccc2n1 | 18
C/C(=N\Nc1cccc([N+](=O)[O-])c1)c1ccccc1O | 6
CCN(CC)S(=O)(=O)c1cccc(C(=O)N/N=C/c2ccc(O)c(O)c2O)c1 | 14
O=S(=O)(Nc1ccccc1)c1ccc(-c2csnn2)cc1 | 25
C1CN(CC2CCN(c3nc4nonc4nc3N3CCSCC3)CC2)CCO1 | 23
CCC12CN(C(=O)c3ccc([N+](=O)[O-])cc3)CC(CC)(CN(C(=O)c3ccc([N+](=O)[O-])cc3)C1)C2=O | 20
O=C(c1ccc(-c2ccccc2)cc1)C1CCCN(C(=O)c2cncs2)C1 (centres undefined) | -1
C/C(CC(=O)N1CCN(C=O)CC1)=N\NC(=O)c1cccc([N+](=O)[O-])c1 | 18
O=C(Nc1cccnc1)c1ccccc1-c1ccccc1 | 4
COc1ccc(C2=NOC(C(=O)N(C)Cc3ccccc3)C2)cc1 (centres undefined) | 12
CCOc1ccc(NC(=S)N=Nc2c(O)[nH]c3ccccc23)cc1 | 3
O=C(C1CCN(S(=O)(=O)c2ccccc2F)CC1)N1CCc2ccccc2C1 | 6

Next part.
SMILES | Biofilm kill mix
Cc1ccc([N+](=O)[O-])cc1NC(=O)c1ccccc1 | 14
Cc1ccnc(-n2c(C)cc(/C=N/NC(=O)COc3cccc4cccnc34)c2C)c1 | 24
COc1ccc(/C=C/C(=O)c2ccc(NC3=NCCCS3)cc2)cc1OC | 16
CC1NC(=S)N(C2CCCCC2)C1=O (centres undefined) | 11
COc1ccc(NS(=O)(=O)c2cccc(NC(=O)NCCCl)c2)cc1 | 12
COC(=O)c1cccc(NC(=S)Nc2ccc(Cl)c(Cl)c2)c1 | 3
CCN1C(=O)c2cccc3c(S(=O)(=O)NCC4CCCO4)ccc1c23 (centres undefined) | 12
O=C(NC(=S)Nc1cc(S(=O)(=O)N2CCOCC2)ccc1O)c1ccco1 | 3
Fc1cccc(Nc2ncnc3c2cnn3-c2ccccc2)c1 | 26
Cc1c(N2C(=O)C3C4C=CC(C4)C3C2=O)c(=O)n(-c2ccccc2)n1C (centres undefined) | 27
Cc1c(C(=O)Nc2ccc(Cc3ccncc3)cc2)cccc1[N+](=O)[O-] | 5
O=c1c2ccccc2nc(SCCN2CCOCC2)n1CCc1ccccc1 | 20
CCCCOC(=O)C1CN(c2ccccc2)N=C1C(=O)OCC (centres undefined) | 17
CC(C)C[C@H](NC(=O)c1[nH]cnc1C(=O)N[C@@H](Cc1ccccc1)C(=O)OC(C)(C)C)C(=O)OC(C)(C)C | 18
O=C1CC(NNc2ccccc2)C(=O)N1c1ccc(N2CCCCC2)cc1 (centres undefined) | 18
CCCCN1C(=O)C(O)(CC(=O)c2c(C)coc2C)c2ccccc21 (centres undefined) | 17
CSc1nc2ccc(Br)cc2[nH]1 | 15
c1ccc2[nH]c(-c3ccncc3)nc2c1 | 3&41
COc1ccccc1NC(=O)CCSc1nnc(-c2ccc(O)cc2)o1 | 13
CCOc1cc(C(=S)N2CCCC2)ccc1OC(=O)Cc1ccc(F)cc1 | 23

Taken from above.
`CCCCOC(=O)C1CN(c2ccccc2)N=C1C(=O)OCC` (centres undefined) @ Biofilm kill mix = 17
`O=C1CC(NNc2ccccc2)C(=O)N1c1ccc(N2CCCCC2)cc1` (centres undefined) @ Biofilm kill mix = 18

(listing goes on)
SMILES | Biofilm kill mix
CCC(C)(C)NC(=O)C(c1ccccc1)N(C(=O)c1csnn1)C1CC1 (centres undefined) | 4
CN(C)c1ccc(/C=C2\CCC/C(=C\c3ccccc3)C2=O)cc1 | 10
CCN(CC)CCCNC(=O)Cn1cnc2sc(C)c(S(=O)(=O)N3CCN(c4ncccn4)CC3)c2c1=O | -5
Cn1c(-c2csc(-c3ccccc3)n2)n[nH]c1=S | 13
COC(=O)Nc1nnc(CC(=O)Nc2ccccc2C)s1 | 13
Cc1nnc(N2CCOCC2)c2nn(-c3cccc(Cl)c3)c(C)c12 | 15
COC(=O)c1c(-c2ccc(C(C)(C)C)cc2)csc1NC(=O)C1C2CCC(O2)C1C(=O)O (centres undefined) | 20
O=C(OCC(=O)C12CC3CC(CC(C3)C1)C2)c1cccnc1Cl | 12
COc1nc(C)ccc1-c1noc(-c2cccs2)n1 | 20
C/C(=N/NC(=O)c1cccs1)c1cccs1 | 30

Rewritten with each value named: part of the list above
molecule: Cc1nnc(N2CCOCC2)c2nn(-c3cccc(Cl)c3)c(C)c12
  Biofilm kill mix: 15

molecule: COC(=O)c1c(-c2ccc(C(C)(C)C)cc2)csc1NC(=O)C1C2CCC(O2)C1C(=O)O (centres undefined)
  Biofilm kill mix: 20

molecule: O=C(OCC(=O)C12CC3CC(CC(C3)C1)C2)c1cccnc1Cl
  Biofilm kill mix: 12

molecule: COc1nc(C)ccc1-c1noc(-c2cccs2)n1
  Biofilm kill mix: 20

More structures
SMILES | Biofilm kill mix
CC1CN(Cc2nc3c(c(=O)n(C)c(=O)n3C)n2CC(=O)c2ccccc2)CC(C)O1 (centres undefined) | 10
CCOC(=O)c1c(NC(=O)COC(=O)Cn2cnc3ccccc32)sc2c1CCC(C)C2 (centres undefined) | 16
NNC(=O)c1cc(Br)cs1 | 0
CCCCCCCCn1ccc(=N)cc1 | 11
CNc1ccc(/C=C2\CSc3ccccc3C2=O)cc1[N+](=O)[O-] | 17
CCNC(=S)Nc1cc(OCC)c(NC(=O)c2ccco2)cc1OCC | 22
COC(C[C@H]1O[C@@H]1[C@@H](O)[C@H](C)OCc1ccccc1)OC | 25
C/C(=N\OCC(=O)NC12CC3CC(CC(C3)C1)C2)c1cc2ccccc2o1 | 0

An excerpt, so the mix of outcomes need not match the whole.
